# Screening results from PubChem BioAssay.
# UCH37 inh: inhibitors of human deubiquitinating enzyme UCH37 | AID 588478 | hit rate 0.33% among 330,000 | inhibition, % (test concentration not listed) | Q9Y5K5 | purified proteasome/UCH37, Ub-AMC cleavage fluorescence;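 active means mean of two replicates above 20%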;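 further: 0% = compound-free wells with enzyme and 100% = wells lacking proteasome; stock transfer was 100 nL into about 20 µL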
# Target sequence (Q9Y5K5 whole entry, looked up): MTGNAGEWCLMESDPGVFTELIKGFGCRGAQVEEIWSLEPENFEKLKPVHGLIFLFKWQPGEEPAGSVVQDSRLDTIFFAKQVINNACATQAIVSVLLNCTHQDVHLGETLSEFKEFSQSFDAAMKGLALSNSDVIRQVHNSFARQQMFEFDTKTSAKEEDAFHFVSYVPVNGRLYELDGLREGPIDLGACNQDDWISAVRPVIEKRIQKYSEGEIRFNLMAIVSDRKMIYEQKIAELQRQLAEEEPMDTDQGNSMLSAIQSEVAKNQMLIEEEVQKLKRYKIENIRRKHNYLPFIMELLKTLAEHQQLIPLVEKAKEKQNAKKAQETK
#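 System: Proteasome-associated human UCH37 deubiquitinase; Input: 0.15 nM proteasome in added enzyme buffer; Also added: Ub-AMC substrate from 1 µM stock; Incubation: 30 min compound-proteasome preincubation then 25 min substrate reaction, room temperature; Detection: fluorescence, ex 355 nm, em 460 nm; Read-out: % inhibition of Ub-AMC cleavage fluorescence; Benchmarks: no-proteasome and no-compound wells.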
# RanGTP-Imp inh: disruptors of Ran-importin-beta complex formation – biochemical, FRET, CFP-Ran, YFP-importin-beta, homogeneous, primary screen; inhibition, % (no concentration beside the values); hit rate 1.1% among 300,000; AID 2216; cell-free CFP-Ran/YFP-importin-beta FRET ratio;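 active means most replicates above 15%; inconclusive means exactly half above 15%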;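 further: 0% = DMSO wells and 100% = Ran loaded with GDP instead of GTP; wells of about 40 µL received 100 nL stock; the first replicate is given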
# B2AR ag: agonists of human beta-2 adrenergic receptor inducing internalization; response, % (concentration not given with the values); Am2.2-beta2AR cells, FAP receptor internalization, flow cytometry; reference of the scale not given here; hit rate 0.43% among 340,000; P07550;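 active means response above a set limit, near 3 SD of response in nonfluorescent compounds, cut at about 42% in these data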;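 further: stock transfer was 100 nL into about 11 µL; a reference agonist was the positive control; negative values mostly stem from fluorescent compounds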
# Target sequence (P07550 whole entry, looked up): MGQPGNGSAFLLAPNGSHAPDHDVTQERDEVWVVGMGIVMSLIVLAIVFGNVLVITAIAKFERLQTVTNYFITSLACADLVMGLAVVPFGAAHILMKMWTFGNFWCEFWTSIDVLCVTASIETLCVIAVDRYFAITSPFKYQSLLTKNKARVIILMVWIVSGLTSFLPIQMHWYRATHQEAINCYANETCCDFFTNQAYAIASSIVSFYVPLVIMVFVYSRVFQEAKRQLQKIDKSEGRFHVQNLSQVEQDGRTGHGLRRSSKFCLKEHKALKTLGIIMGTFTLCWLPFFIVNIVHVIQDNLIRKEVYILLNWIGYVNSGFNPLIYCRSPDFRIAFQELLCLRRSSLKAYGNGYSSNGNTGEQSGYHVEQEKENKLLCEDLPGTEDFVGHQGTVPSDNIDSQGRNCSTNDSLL
# A1 inh: inhibitors of the anti-apoptotic protein A1, read as caspase activation; AID 2462; hit rate 0.066% among 330,000; MEF A1-2A-BIM cells, Caspase-Glo 3/7 luminescence, 3 h; percent of clofoctol response, vehicle zero; caspase activation, % (no concentration beside the values);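 active means over half of replicate activation scores above 10%, or exactly half above 10 with the replicate mean above 10; inconclusive means replicate mean below 10 yet half the replicates above 10; inactive means over half of replicates below 10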;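 further: wells of about 30 µL received 50 nL stock; many hits fall short of the cut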
# Beta apoptosis: blocks beta cell apoptosis | INS-1E cytokine-induced death, ATP luminescence, 48 h; percent of positive-control rescue, neutral wells zero | protection from apoptosis, % (no concentration beside the values) | hit rate 0.8% among 300,000;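 active means all replicates at 75% or more, or half of them and the mean; inconclusive means half reach 75% but not the mean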;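 further: 0% = cytokine-treated negative control wells and 100% = positive control rescue; higher means more ATP so stronger rescue from cytokine killing; wells of about 40 µL received 100 nL stock; the first replicate is given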
# Calb FLC: C. albicans growth modulation with fluconazole; AID 1979; hit rate 0.57% among 300,000; growth inhibition, % (test concentration not listed); C. albicans CaCi-2 (fluconazole-resistant clinical isolate) + fluconazole, Alamar Blue growth, 48 h;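 active means most replicates above 75%; inconclusive means exactly half above 75%; inactive means most below 75%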;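 further: all wells also contain fluconazole at 8 µg/ml as a sub-toxic cotreatment; 0% = median of DMSO wells and 100% = median of geldanamycin control wells; wells of about 8 µL received 7.5 nL stock; the first replicate is given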
# T cruzi inh: T. cruzi replication inhibition | T. cruzi beta-gal in NIH3T3, luminescence, 90 h | inhibition, % (concentration not given with the values) | hit rate 1.4% among 300,000 | AID 1885;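 active means mean inhibition across valid replicates above about 55%, limit read from the data; inconclusive means mean below that limit but half or more replicates reach it; inactive means mean below it, under half of replicates reach it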;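 further: signal also drops with host cell toxicity which is not excluded here; 0% = plate median of DMSO wells and 100% = zero luminescence signal; higher percent means less beta-gal luminescence so fewer parasites; stock transfer was 50 nL into about 50 µL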
# LANA-H2B inh: blocks KSHV LANA binding to histone H2A/H2B | Q9QR71 | cell-free LANA-H2A/H2B peptide, fluorescence polarization | inhibition, % (test concentration not listed) | hit rate 0.6% among 320,000; in the data active means inhibition mostly above about 10%, no sharp cut-off; inactive means mostly below about 6.7%;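 further: stock transfer was 7.5 nL into about 10 µL; 0% = median of vehicle wells and 100% = median of positive control wells; one replicate is shown; the record names a cut of 25% in any replicate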
# An asterisk follows results filed as active; i = inactive; u = inconclusive; x = not tested or not shown.
# Sequence of screens: UCH37 inh | RanGTP-Imp inh | B2AR ag | A1 inh | Beta apoptosis | Calb FLC | T cruzi inh | LANA-H2B inh
- CCc1cccc(NC(=O)CN(C)S(=O)(=O)c2cccs2)c1
  -2.2 | 5.7 | 6 | 0.8 | -5 | -4 | 5 | -0.7
- CCC(=O)Nc1cccc(NC(=O)c2cccc([N+](=O)[O-])c2C)c1
  2.8 | -1.9 | -2 | -1.0 | 2 | 11 | -8 | 10
- O=C(COC(=O)C1COc2ccccc2O1)Nc1cccc(S(=O)(=O)N2CCCCC2)c1 (stereo not given)
  -0.4 | 1.7 | 5 | 0.1 | -2 | -8 | -15 | -5.6
- Cc1noc(C)c1COc1ccccc1C(=O)NNC(=O)c1ccccc1
  2.1 | -1.5 | -8 | 1.7 | 1 | -1 | -8 | 4.7
- OC1C2(Cc3ccccc3)CN3CCN(C2)CC1(Cc1ccccc1)C3 (stereo not given)
  0.0 | -0.6 | 3 | 0.4 | 4 | -3 | 4 | -3.7
- CCOC(=O)N1CCN(Cc2nc3cc([N+](=O)[O-])ccc3n2C)CC1
  2.7 | -4.4 | 0 | 0.7 | 2 | -5 | 1 | -8.4
- COC(=O)c1ccc(CN2C(=O)NC(CC(C)C)C2=O)cc1 (stereo not given)
  2.2 | -0.4 | 4 | -0.9 | x | -9 | -11 | -2.1
- Cn1c(N=NC(=O)c2ccccc2)c(O)c2ccccc21
  8.4 | -0.3 | -6 | -6.1 | 9 | 11 | 20 | -3.0
- COC(=O)c1[nH]c2ccccc2c1NC(=O)CN1CCCCCC1
  -0.8 | -4.3 | -3 | -0.1 | 6 | -2 | 11 | 1.0
- Oc1ccc2ccccc2c1C=Nc1ccccc1-c1nc2ccccc2[nH]1
  -150 | 4.4 | 7 | -0.8 | 6 | -1 | -23 | -2.0
- CC(=O)N/C(=C\c1cccs1)C(=O)O
  1.9 | 7.5 | -5 | 1.1 | -7 | -17 | -19 | 2.4
- CN(C)c1ccc(/C=C2/NC(=O)NC2=O)cc1
  14 | -1.7 | 4 | -1.9 | 2 | -12 | 19 | 0.8
- Cc1ccc(S(=O)(=O)N2CCN(CCOc3cccc(C)c3)CC2)cc1
  0.5 | x | 4 | 0.5 | -10 | x | x | 4.3
- CN(C)c1nc2ccccc2c(N)c1-c1ccccc1
  7.2 | x | -4 | 0.4 | 7 | x | x | 2.4
- O=C(COc1cc2oc(=O)c3c(c2cc1Cl)CCC3)NCCCN1CCOCC1
  -0.8 | -0.2 | -7 | -0.1 | x | -2 | -2 | -1.9
- Cc1cc(-c2ccc(S(=O)(=O)N3CCN(c4cccc(C(F)(F)F)c4)CC3)s2)on1
  -0.4 | 4.6 | -1 | -2.3 | -4 | -4 | 14 | 0.8
- Cc1ccc2nc(Cc3ccc(N)cc3)oc2c1
  1.1 | -2.2 | 6 | -2.1 | -7 | 0 | -1 | 7.6
- O=C(Cc1cccs1)Nc1cccc(C(=O)Nc2ccc(C(=O)O)cc2)c1
  x | 0.2 | 3 | 0.3 | -13 | -14 | -35 | 51*
- CCOc1ccc(-c2cc(NC(=O)Cn3ncc4c3-c3ccccc3OC4)on2)cc1OCC
  1.4 | -0.5 | 5 | 0.1 | 12 | 12 | 3 | 1.5
- Cc1ccc(C)c(C(=O)CSc2nnnn2-c2cccnc2)c1
  -0.3 | 1.1 | -15 | 0.1 | -4 | 1 | 14 | -1.9
- O=C(Nc1nnc(Cc2ccc([N+](=O)[O-])cc2)s1)Nc1ccccc1F
  4.7 | -1.6 | -1 | 0.4 | 4 | 43 | -16 | 0.1
- Cc1ccc(S(=O)(=O)N2[C@@H](c3ccc(C(C)(C)C)cc3)C(C(=O)O)=CC[C@H]2c2ccc3c(c2)OCO3)cc1
  1.6 | x | 7 | -0.5 | -1 | x | x | -1.8
- Cc1cccc(NC(=S)NC(=O)c2ccco2)c1C
  3.6 | u | 4 | -0.1 | -2 | -7 | -20 | 4.1
- COc1ccc(CCNC(=O)c2cccc3c2C(=O)N(C2CCCCC2)C3)cc1OC
  3.8 | -1.9 | 0 | -0.6 | 10 | -6 | 27 | -2.8
- CC(=O)Nc1ccc(NC(=O)CSc2nnc3ccc(-c4ccc(F)cc4)nn23)cc1
  1.1 | 3.4 | -12 | 0.9 | 6 | 15 | -2 | 7.3
- Cc1c(NC(=O)c2ccc3nsnc3c2)cccc1[N+](=O)[O-]
  1.8 | 5.3 | 6 | -0.6 | -3 | -3 | -21 | -0.5
- O=C(Nc1cc([N+](=O)[O-])ccc1O)c1cccc([N+](=O)[O-])c1
  9.4 | 0.3 | 10 | -10 | 6 | 40 | -22 | 0.2
- CCN(CC)S(=O)(=O)c1cccc(-c2n[nH]c(=S)n2CC(C)C)c1
  -0.8 | -0.9 | 2 | -0.1 | 0 | -10 | 4 | 0.3
- COC(=O)c1ccc(C2NC(C(=O)O)CS2)cc1 (stereo not given)
  -1.0 | -1.5 | -17 | 1.8 | -5 | 12 | -7 | -0.5
- Cc1ccc(S(=O)(=O)N(C)CC(=O)N2CCCC2)cc1
  1.0 | -2.0 | -2 | 0.3 | -5 | 6 | -11 | -3.2

# Four entries from above, ordered by molecular weight, low to high:
# Sequence of screens: UCH37 inh | RanGTP-Imp inh | B2AR ag | A1 inh | Beta apoptosis | Calb FLC | T cruzi inh | LANA-H2B inh
- CN(C)c1nc2ccccc2c(N)c1-c1ccccc1
  7.2 | x | -4 | 0.4 | 7 | x | x | 2.4
- COC(=O)c1ccc(C2NC(C(=O)O)CS2)cc1 (stereo not given)
  -1.0 | -1.5 | -17 | 1.8 | -5 | 12 | -7 | -0.5
- Cn1c(N=NC(=O)c2ccccc2)c(O)c2ccccc21
  8.4 | -0.3 | -6 | -6.1 | 9 | 11 | 20 | -3.0
- Cc1ccc(S(=O)(=O)N(C)CC(=O)N2CCCC2)cc1
  1.0 | -2.0 | -2 | 0.3 | -5 | 6 | -11 | -3.2

# (listing goes on)
# Sequence of screens: UCH37 inh | RanGTP-Imp inh | B2AR ag | A1 inh | Beta apoptosis | Calb FLC | T cruzi inh | LANA-H2B inh
- Cc1cc(-n2c(C)cc(C(=O)CSc3ccccn3)c2C)no1
  -0.4 | x | -7 | -5.3 | 0 | x | x | -1.2
- CCn1c(SCC(=O)Nc2cc(S(=O)(=O)N3CCOCC3)ccc2OC)nnc1-c1ccncc1
  -2.7 | 4.7 | -9 | -0.2 | -1 | -10 | -6 | -4.9
- Cc1cc(SCC(=O)N2CCCC2)nc2ccccc12
  1.9 | 0.2 | -1 | 0.4 | -3 | -3 | 8 | 5.2
- CCC(C)NC(=O)C1(NC(=O)Nc2ccccc2)CCCCC1 (stereo not given)
  0.8 | 7.9 | 2 | -0.4 | -9 | 4 | -7 | 3.5
- Cc1[nH]c2ccc(F)cc2c1CCN(Cc1ccco1)C(=S)NC(C)(C)C
  0.9 | -5.4 | 11 | -0.1 | -3 | 3 | x | 1.1
- CN(C)c1ccc(C(=O)c2ccccc2C(=O)O)cc1[N+](=O)[O-]
  15 | -2.5 | 2 | 0.7 | -6 | 24 | 0 | -8.4
- CCOc1ccc(C(=O)NNC2CC(=O)N(Cc3ccc(Cl)cc3)C2=O)cc1OC (stereo not given)
  0.0 | 2.8 | 3 | 0.5 | -16 | 0 | -3 | 2.2
- CN1CCN(C(=O)CN(C2CCCCC2)S(=O)(=O)c2ccc(Br)cc2)CC1
  1.4 | -0.8 | -7 | -1.2 | 0 | 3 | -1 | -4.7
- Cc1cc(=O)[nH]c(SCC(=O)c2ccc3c(c2)NC(=O)CO3)n1
  4.8 | 2.3 | 3 | -0.4 | -1 | 0 | -4 | 2.3
- CCOCCCn1c(=NC(C)=O)c(C#N)cc2c(=O)n3ccccc3nc21
  i | 123* | -5 | -0.3 | -4 | -18 | -8 | 0.2
- O=C(COC(=O)c1ccco1)c1ccc(Cl)cc1
  6.5 | 3.0 | 3 | -2.0 | -9 | 0 | -9 | 0.5
- COc1cc2c(cc1OC)C(c1ccc(OC)c(OC)c1OC)CC(=O)N2 (stereo not given)
  1.6 | -3.9 | 9 | 1.0 | -7 | 0 | -3 | -1.1
- COC(=O)Cc1c(O)ccn(Cc2ccc(OC)c(OC)c2)c1=O
  0.5 | 3.1 | 9 | -0.1 | -3 | -3 | -17 | -2.4
- COc1cc(C(=O)NCC(c2cccs2)N(C)C)cc(Cl)c1OC(C)C (stereo not given)
  -1.5 | 0.1 | 2 | -0.2 | -1 | -5 | -5 | 0.0
- CCC(C)N(C(=O)Cn1c(Cl)nc2c1c(=O)n(C)c(=O)n2C)C1CCS(=O)(=O)C1 (stereo not given)
  0.1 | 1.5 | -3 | 0.1 | x | 3 | -4 | -0.3
- CC(O)(CS(=O)(=O)Cc1cccc(C(F)(F)F)c1)C(=O)Nc1cccc(C(F)(F)F)c1 (stereo not given)
  3.2 | -1.2 | -6 | 0.2 | -13 | 24 | 35 | -2.1
- CC(=O)c1ccc(OCC(=O)OCC(=O)Nc2sccc2C(N)=O)cc1
  -1.4 | x | -1 | -1.7 | -5 | x | x | 16*
- COc1ccccc1C(=O)NCCC(=O)Nc1cccc(S(=O)(=O)N2CCCC2)c1
  -2.2 | x | -9 | -0.5 | 4 | x | x | 2.8
- Cn1ccc(C(=O)N/N=C/c2c[nH]c3ccccc23)n1
  x | -0.3 | 10 | 1.2 | 1 | -5 | -14 | -4.2
- O=C(CSc1nnc2ccccn12)Nc1ncc(Cl)cc1Cl
  4.9 | -3.7 | -4 | 0.5 | 5 | -41 | 12 | -11
- C=CCN(c1ccc(Br)cc1C(=O)OC)S(C)(=O)=O
  4.9 | x | -3 | -0.5 | 0 | x | x | 4.2
- CC1CCCN(S(=O)(=O)c2ccc(NC(=O)C3CC(=O)N(C(C)(C)C)C3)cc2)C1 (stereo not given)
  2.4 | 0.3 | -6 | 0.4 | x | -4 | -11 | -6.4
- COc1cc(OC)cc(C(=O)Nc2ccc(CN3CCCCC3)cc2)c1
  2.8 | -0.3 | -1 | -1.0 | 9 | 5 | 21 | 14
- CC(c1ccccc1)N(C)C(=O)CSc1nnc(C2CC2)n1C1CC1 (stereo not given)
  -0.3 | x | -7 | -0.4 | 1 | x | x | -3.3
- CCOCCCNC(=S)N1CCCN(c2nc3cc(C)ccc3cc2C#N)CC1
  -38 | 4.4 | -2 | 2.2 | -1 | 3 | -1 | 4.9
- COc1ccc(NS(=O)(=O)c2cc(C(=O)OC(C)C(=O)N3CCOCC3)ccc2Cl)cc1 (stereo not given)
  4.4 | -1.8 | 3 | -0.4 | -1 | -11 | 10 | -1.4

# Exported with bars between the fields: part of the list above.
molecule | UCH37 inh | RanGTP-Imp inh | B2AR ag | A1 inh | Beta apoptosis | Calb FLC | T cruzi inh | LANA-H2B inh
CCOCCCNC(=S)N1CCCN(c2nc3cc(C)ccc3cc2C#N)CC1 | -38 | 4.4 | -2 | 2.2 | -1 | 3 | -1 | 4.9
COc1ccc(NS(=O)(=O)c2cc(C(=O)OC(C)C(=O)N3CCOCC3)ccc2Cl)cc1 (stereo not given) | 4.4 | -1.8 | 3 | -0.4 | -1 | -11 | 10 | -1.4
